MT1-MMP act inh: MT1-MMP (human) activation inhibition; AID 651647; GFP/RFP ratio change, % at 20 µM; HT1080 RFP-PRO-GFP cells, GFP/RFP ratio fluorescence, overnight; percent of plate control window, DMSO zero; actives 0.061% (n = 360,000); P50281;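 active means GFP/RFP ratio change of at least 30% with cell ATP level not reduced by more than half and red fluorescence within 50% of control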; further: strong numbers were not always called active
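Assay system – RFP-PRO-GFP reporter HT1080 cells · Compound dosing – single dose of 20 µM compound, 1% DMSO final · Incubation – overnight compound exposure at 37 °C · Measure – GFP/RFP fluorescence ratio · Benchmarks – DMSO wells and RFP-L50D-GFP cells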
HIV Env fusion: HIV envelope-mediated fusion inhibition; HeLa-JRFL Env/CEM21 cell fusion, luciferase; inhibition, % at 12.3 µM; actives 1.1% (n = 360,000); AID 651610;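 active means mean replicate inhibition score of at least 50 and every replicate individually at or above 50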;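 further: 0% = plate neutral controls and 100% = maraviroc near 300 nM; one replicate is shown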
eIF4H inh: inhibitors of RNA binding by human eIF4H. eIF4H fluorescence polarization binding assay. inhibition, % at 35 µM. Q15056. AID 2012. actives 0.94% (n = 290,000);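 active means 50% or more with normal probe brightness, or confirmed in later tests; about a fifth of its hits are not listed in these tables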;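 further: calls also rest on retests at 20 µM and on dose response follow-up; 0% = protein and probe with vehicle and 100% = probe without protein; strong numbers were not always called active; many hits fall short of the cut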
CSC inhib: blocks cancer stem cells | inhibition, % at 7.5 µM | actives 1.1% (n = 300,000) | cancer stem cell-like cells viability, luminescence;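 active means mean at 75% or more and at least half the replicates too; tested in HMLE shEcad cells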;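 further: 0% = median of negative and 100% = median of positive control wells; the first replicate is given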
Rce1 inhib: inhibitors of yeast Ras-converting enzyme; yeast membranes, quenched prenylated peptide cleavage fluorescence; Q03530; actives 0.27% (n = 290,000); calls only;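 active means fall in fluorescence gain of 50% or more versus controls, with final raw signal at or below 3038400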;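 further: plate controls were neutral control wells for no effect and wells lacking membranes for full effect; tested at 10 µM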
Target sequence (Q03530 whole entry, looked up): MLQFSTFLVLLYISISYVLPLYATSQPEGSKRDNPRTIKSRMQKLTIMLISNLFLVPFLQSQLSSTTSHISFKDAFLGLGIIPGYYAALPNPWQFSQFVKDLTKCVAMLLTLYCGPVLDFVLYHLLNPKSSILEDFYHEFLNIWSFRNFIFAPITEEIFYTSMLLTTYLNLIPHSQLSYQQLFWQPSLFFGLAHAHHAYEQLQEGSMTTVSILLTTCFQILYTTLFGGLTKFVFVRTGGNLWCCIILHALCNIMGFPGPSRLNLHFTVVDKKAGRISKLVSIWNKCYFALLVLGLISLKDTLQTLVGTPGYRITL
Yeast UUG start: alters start codon recognition fidelity in yeast; actives 0.13% (n = 350,000); activity score, % at 18.7 µM; S. cerevisiae UUG-firefly luciferase reporter, luminescence/redox ratio;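 active means replicate mean at a twofold rise or more, about +100% in these data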;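 further: firefly luciferase made from a UUG start codon reports start codon fidelity; reporter light over untreated wells divided by growth signal over untreated wells; some hits fall short of that in this replicate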
PABP FP inh: PABP-poly(A) binding inhibition; PABP-poly(A) RNA binding, fluorescence polarization; inhibition, % at 35 µM; actives 1% (n = 290,000); P11940;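 active means 50% or more with normal probe brightness, or confirmed in later tests; about a fifth of its hits are not listed in these tables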;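 further: calls also rest on retests at 20 µM and on dose response follow-up; controls were probe without protein and protein plus probe with vehicle; some compounds called inactive have numbers as strong as hits; many hits fall short of the cut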
Target sequence (P11940 whole entry, looked up): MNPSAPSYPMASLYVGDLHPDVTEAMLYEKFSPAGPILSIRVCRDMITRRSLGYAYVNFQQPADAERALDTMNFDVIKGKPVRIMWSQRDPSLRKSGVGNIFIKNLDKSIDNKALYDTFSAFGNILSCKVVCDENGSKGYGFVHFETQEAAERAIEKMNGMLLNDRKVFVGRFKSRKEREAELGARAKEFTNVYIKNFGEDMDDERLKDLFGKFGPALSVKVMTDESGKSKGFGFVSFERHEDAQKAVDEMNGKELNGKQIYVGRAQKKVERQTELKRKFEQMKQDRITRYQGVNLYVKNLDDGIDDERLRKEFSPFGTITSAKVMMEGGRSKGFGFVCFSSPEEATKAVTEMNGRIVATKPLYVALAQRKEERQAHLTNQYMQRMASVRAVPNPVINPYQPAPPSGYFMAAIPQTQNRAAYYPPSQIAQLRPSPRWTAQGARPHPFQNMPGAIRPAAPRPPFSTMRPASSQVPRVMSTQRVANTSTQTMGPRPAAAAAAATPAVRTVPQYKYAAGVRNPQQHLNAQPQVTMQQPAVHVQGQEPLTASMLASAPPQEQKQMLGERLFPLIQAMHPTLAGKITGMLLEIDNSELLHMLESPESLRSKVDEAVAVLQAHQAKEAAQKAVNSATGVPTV
eIF4H inh retest: recorded beside eIF4H inh, whose call it bears; inhibition, %; compound at 20 µM; confirmation average;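 mean of two retest wells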
PABP FP inh retest: further read-out of PABP FP inh, marked with its call; inhibition, %; compound at 20 µM; confirmation repeats;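 mean of two retest wells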
MT1-MMP act inh RFP: also measured in MT1-MMP act inh; calls as there; RFP signal change, %; measured here: RFP expression control read;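 0 = vehicle wells; hits needed this value within 50% of zero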
Numbers without * were called inactive; i = inactive; · = not tested or not shown; + = active, no number; & = joins results of further samples.

SMILES | MT1-MMP act inh | MT1-MMP act inh RFP | HIV Env fusion | eIF4H inh | CSC inhib | Rce1 inhib | Yeast UUG start | PABP FP inh | others
COc1ccc(C2C(C(=O)NCCCN3CCOCC3)c3ccccc3C(=O)N2c2ccc(OC)cc2)cc1 (configuration not stated) | 0.8 | 0.3 | 13.4 | -13.1 | -18.7 | i | -5.4 | -2.5
CC(=O)Nc1ccc(-c2cn3c(n2)SCC3)cc1 | -8.1 | 2.5 | -4.4 | -7.9 | · | i | -3.2 | 5.2
CC(=O)c1ccccc1C(=O)N1CCC(CCC(=O)NCc2ccc(F)cc2)CC1 | 3.9 | 7.9 | 5.1 | · | · | · | -4.1 | ·
COc1cc(C=NNc2ccccc2)ccc1OC(=O)c1ccccc1 | -2.1 | -1.9 | -41.9 | · | · | · | -17.1 | ·
COc1ccc(S(=O)(=O)N2CCC(NC(=O)c3ccccc3)CC2)cc1 | 2.9 | -4.0 | -7.9 | -4.1 | -4.9 | i | -15.3 | 8.6
COCCNC(=O)C1CCCN(C(=O)c2cncc(Br)c2)CC1 (configuration not stated) | -0.8 | 2.0 | -91.1 | · | · | · | -17.4 | ·
Cc1nn(-c2ccccc2)c(Cl)c1/C=N\NC(=O)c1cnccn1 | 1.7 | 5.9 | 10.2 | -4.9 | -6.1 | i | -5.3 | -1.0
S=C(NCCc1c[nH]c2ccccc12)NC1CCCCC1 | -0.6 | -4.9 | -6.4 | -7.0 | -10.7 | i | · | 9.4
O=C(NNc1ncnc2c1cnn2-c1ccccc1)c1ccco1 | 2.0 | 3.3 | 1.0 | -10.1 | -25.5 | i | -16.9 | 0.6
CCN(CC(=O)NC(C)(C)C)C(=O)COc1c(Cl)cc(Cl)c2ccc(C)nc12 | 6.2 | -3.3 | 5.4 | 0.7 | 33.4 | i | · | 3.7
Cc1nc(N)[nH]c(=O)c1Oc1cccc(C(F)(F)F)c1 | 0.7 | -0.7 | -5.1 | -11.0 | -13.6 | i | -13.3 | -1.8
CCN(CC)S(=O)(=O)c1ccc2c(c1)C(=NO)c1cc(S(=O)(=O)N(CC)CC)ccc1-2 | -54.0 | -43.0 | -18.6 | -1.3 | 85.4* | i | -14.9 | -2.1
O=C(NC1(Cc2ccccc2)CCN(CCc2cccs2)C1=O)c1ccccc1 (configuration not stated) | -3.7 | -3.2 | 14.2 | · | -4.5 | · | 5.9 | ·
CC(C)(C)C1N=C(c2ccc3ccccc3c2)OC1=O (configuration not stated) | 1.6 | -1.1 | 21.4 | · | -11.2 | · | -4.4 | ·
Nc1ccc(-c2ncc(-c3ccccc3)o2)cc1 | -1.5 | -3.3 | 37.4 | 11.2 | 14.7 | i | -32.6 | -6.3
Cc1onc(-c2ccccc2)c1CNC(=O)Nc1ccccc1 | -0.8 | -4.0 | -24.6 | -1.7 | -9.5 | i | · | -8.1
O=C(NCC(O)c1ccc([N+](=O)[O-])cc1)Nc1ccccc1 (configuration not stated) | -1.9 | -3.8 | -8.2 | -13.5 | 1.3 | i | 12.3 | -0.3
CCOc1cc(CN2CCN(S(=O)(=O)Cc3ccccc3)CC2)ccc1OC | 5.2 | -0.3 | -12.4 | -8.0 | -3.0 | i | -11.5 | 4.3
C=CCO/N=C(/CCC)C1=C(N)CC(C)(C)CC1=O | 2.1 | -3.3 | 5.3 | -1.7 | -4.7 | i | -3.9 | -3.5
O=C(/C=C/c1ccccc1Cl)N(Cc1cccs1)C1CCS(=O)(=O)C1 (configuration not stated) | -0.3 | -0.3 | 32.6 | 0.5 | -11.1 | i | 0.8 | -7.2
N#C/C(=C/c1ccc(F)cc1)c1nnc(NC(=O)c2ccccc2)s1 | -8.4 | -4.1 | 11.6 | 88.3* | 14.5 | i | -9.6 | 57.1*
COC(=O)[C@]1(Cc2ccccc2)N[C@H](CN(C)S(=O)(=O)c2ccc(OC(F)(F)F)cc2)[C@@H]2C(=O)N(Cc3ccccc3)C(=O)[C@@H]21 | -2.4 | -5.8 | 48.1 | · | · | · | -9.3 | ·
CCCNC(=O)CC(NS(=O)(=O)c1ccc(OC)cc1)c1ccco1 (configuration not stated) | 16.9 | 4.0 | -4.9 | 6.1 | 1.3 | i | · | 14.6
CSc1ccccc1C(=O)OCC(=O)Nc1cccnc1Cl | -2.0 | 1.0 | · | · | -2.1 | · | -5.1 | ·
NC(=O)c1ccc(Cl)c2ccccc12 | -3.7 | 1.2 | 28.2 | 6.6 | 2.3 | i | -13.0 | -2.3
New compounds follow:
SMILES | MT1-MMP act inh | MT1-MMP act inh RFP | HIV Env fusion | eIF4H inh | CSC inhib | Rce1 inhib | Yeast UUG start | PABP FP inh | others
Cc1ccc(C(=O)OCC(=O)N2CCCc3ccccc32)cc1C | -0.2 | 1.7 | -10.0 | · | · | · | -7.6 | ·
COc1ccc(NC(=O)c2cc(S(=O)(=O)N3CCCC3)ccc2C)cn1 | -1.7 | -4.0 | 21.4 | · | -13.2 | · | -6.4 | ·
COc1ccc(S(=O)(=O)Nc2cccc3c2O[C@H](CN(C)C(=O)Nc2c(C)noc2C)[C@@H](C)CN([C@H](C)CO)C3=O)cc1 | 0.1 | 1.1 | 2.7 | · | -10.0 | · | -4.7&-5.4 | ·
CCOC(=O)C1=NN(c2ccccc2)C2(S1)SC(C(C)=O)=C(C)N2c1ccccc1 (configuration not stated) | 1.8 | -0.7 | 32.8 | 2.8 | 15.0 | i | -5.7 | 2.2
O=c1cc(CN(Cc2ccccc2)Cc2ccccc2)c2c(ccc3ccccc32)o1 | -4.3 | -7.1 | -20.2 | · | · | · | -16.6 | ·
Cc1ccc(C)c(-c2cc(C(=O)Nc3cccc(C(=O)O)c3)c3ccccc3n2)c1 | 3.3 | 1.7 | -8.6 | -4.8 | -2.5 | i | · | -5.7
CC1Oc2ccccc2N(CC(=O)NCCN2CCOCC2)C1=O (configuration not stated) | -1.4 | 1.4 | · | 3.0 | 8.5 | i | -14.9 | 13.4
CC(C)(O)CC[C@@H](O)[C@](C)(O)C1CC[C@@]2(O)C3=CC(=O)[C@]4(O)C[C@@H](O)[C@@H](O)C[C@]4(C)C3CC[C@]12C (some centres not stated) | -3.3 | 2.3 | -6.5 | · | -0.1 | · | -11.9 | ·
Cc1nn(-c2c(Cl)cc(Cl)cc2Cl)c(=O)c2ccccc12 | -0.6 | -4.6 | · | 0.1 | -17.8 | i | · | -5.9
CC(=O)Nc1ccc(-n2cc(-c3ccccc3)[nH]c2=S)cc1 | -0.3 | 1.6 | -1.3 | -9.5 | -8.0 | i | -16.7 | -3.2
Cc1cccnc1NC(=O)CNC(=O)COc1ccccc1 | -0.1 | 5.0 | · | · | · | i | 2.2 | ·
Cc1ccc(-c2c(C(=O)N/N=C/c3cccc(Cl)c3)nnn2-c2nonc2N)cc1 | -0.9 | -1.2 | 2.8 | -5.0 | -16.0 | + | -21.3 | -9.7
CCOC(=O)c1c(NC(=O)/C=C/c2ccc3c(c2)OCO3)sc(C)c1CC | -1.1 | 4.8 | · | -3.7 | 122.5* | i | 1.2 | 1.4
CC(=O)c1ccccn1 | 1.3 | 7.2 | · | · | -14.6 | i | -6.9 | ·
Cc1ccc(C)c(N(CC(=O)NC2CCCC2)C(=O)CCCC(=O)Nc2ccccn2)c1 | 3.8 | 2.6 | · | 6.7 | · | i | -5.6 | 1.6
COc1cccc(C2=NOC(C(=O)Nc3cc(C)on3)C2)c1 (configuration not stated) | 1.9 | 4.2 | -30.4 | 0.0 | 0.2 | i | -18.3 | 10.0
C=C[C@H](Cc1ccccc1)N(Cc1ccccc1)S(=O)(=O)N(Cc1ccccc1)[C@H](C=C)Cc1ccccc1 | -8.9 | -29.7 | 60.8* | · | 20.8 | · | -9.4 | ·
COc1ccc(-c2ccc3nnc(SCC(=O)N4CCCC4)n3n2)cc1 | 6.6 | 8.8 | 0.1 | · | -4.4 | i | · | ·
CC1CC(=O)c2cnc(Nc3ccccc3)nc2C1 (configuration not stated) | 5.3 | 29.3 | · | -9.3 | · | i | -13.7 | -0.6
CCOC(=O)c1cnc2cc(-c3ccc(C)cc3)nn2c1C | -0.4 | 1.9 | 1.1 | · | · | · | -12.3 | ·
O=C(Cc1sc(-c2ccccc2)nc1-c1ccccc1)Nc1ccccc1 | -7.2 | -2.7 | · | -3.1 | 0.0 | i | -15.9 | -5.0
COc1ccc(Br)cc1CN(C)C(=O)c1cnc(C)cn1 | 2.9 | 4.5 | 26.2 | -1.5 | -8.3 | i | -6.7 | 2.3
Cc1c(Br)c([N+](=O)[O-])nn1CC(=O)N1CCN(Cc2ccccc2)CC1 | -1.1 | 3.0 | -4.8 | -8.6 | 14.0 | i | · | -10.5
O=C1CCC(C(=O)N2CCC(O)(c3ccccc3)CC2)CN1CCc1ccccc1 (configuration not stated) | -2.9 | 0.4 | 23.0 | -11.7 | -13.0 | i | -12.4 | -17.2
N#CC1=C(N)N(c2ccccc2)C(=O)C1 | 1.0 | 2.6 | · | 31.7 | -8.1 | · | -25.8 | 54.0* | eIF4H inh retest=40.0;PABP FP inh retest=73.3*

Sorted by molecular weight (falling): part of the list above
SMILES | MT1-MMP act inh | MT1-MMP act inh RFP | HIV Env fusion | eIF4H inh | CSC inhib | Rce1 inhib | Yeast UUG start | PABP FP inh | others
Cc1ccc(C)c(N(CC(=O)NC2CCCC2)C(=O)CCCC(=O)Nc2ccccn2)c1 | 3.8 | 2.6 | · | 6.7 | · | i | -5.6 | 1.6
Cc1nn(-c2c(Cl)cc(Cl)cc2Cl)c(=O)c2ccccc12 | -0.6 | -4.6 | · | 0.1 | -17.8 | i | · | -5.9
Cc1cccnc1NC(=O)CNC(=O)COc1ccccc1 | -0.1 | 5.0 | · | · | · | i | 2.2 | ·

(cont.)
SMILES | MT1-MMP act inh | MT1-MMP act inh RFP | HIV Env fusion | eIF4H inh | CSC inhib | Rce1 inhib | Yeast UUG start | PABP FP inh | others
O=c1[nH]cnc(O)c1C(c1ccc(F)cc1)c1c(O)nc[nH]c1=O | -4.1 | 0.3 | -0.3 | -2.8 | -17.5 | i | -19.4 | -14.0
Cc1occc1-c1nnc(SCC(=O)Nc2ccc(F)cc2)n1Cc1ccccc1 | -9.0 | -8.7 | -33.1 | 4.6 | · | i | 6.6 | -3.3
CCN(c1ccccc1)S(=O)(=O)c1cc(NC(=O)C2CC2)ccc1Cl | -0.5 | -4.7 | 4.0 | · | -4.3 | · | -10.5 | ·
COc1ccc(CCNC(=O)c2cc(S(=O)(=O)N3CCOCC3)ccc2F)cc1 | 0.9 | -3.1 | 12.2 | · | -4.6 | · | -10.0 | ·
C=CCn1c(O)c(C2=c3ccccc3=NC2=O)sc1=Nc1ccc(O)cc1 | 16.6 | -2.8 | -8.5 | -10.7 | 94.9* | i | 13.8 | 14.4
O=C(NCc1ccccc1Cl)C1CCN(C(=O)c2ccco2)CC1 | · | · | · | -3.9 | -1.6 | i | · | 6.2
Cc1[nH]c2ccccc2c1C(=O)COC(=O)C1CCC1 | 0.2 | 0.1 | 7.8 | -7.7 | -3.4 | i | -5.3 | 3.6
COc1ccc(CSc2nnc(N)s2)cc1F | 10.9 | -2.1 | · | -1.9 | -1.2 | i | -23.2 | -5.5
Cc1nn(Cc2ccccc2)c(N)c1-c1ccccc1 | 5.8 | 1.8 | · | 3.9 | -13.1 | · | -16.3 | 2.9
COc1ccc(C(=O)NC2CC3CCCC(C2)N3Cc2ccccc2)cc1 (configuration not stated) | 0.3 | 0.1 | 2.5 | -11.8 | 8.0 | i | -9.7 | -6.0
CCCCNC(=O)c1cc2nc3c(c(C(F)(F)F)n2n1)CCc1ccccc1-3 | 1.2 | 1.5 | -40.7 | -8.4 | 14.4 | i | -9.5 | 1.1
COc1cc2nc(N(CCCN(C)C)C(=O)c3ccc(S(=O)(=O)N4CCc5ccccc5C4)cc3)sc2cc1OC | -1.8 | 1.4 | -0.6 | · | -4.9 | i | 11.3 | ·
